From PubChem BioAssay
A1 inh = caspase 3/7 activation in MEF A1-2A-BIM cells, primary screen, A1 inhibitor project, cell-based, luminescence, HTS; Caspase-Glo 3/7 luminescence, 3 h; percent of clofoctol response, vehicle zero; caspase activation, % (test concentration not listed); 330,000 tested, 0.066% active; AID 2462, 2010;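 active = over half of replicate activation scores above 10%, or exactly half above 10 with the replicate mean above 10; inconclusive = replicate mean below 10 yet half the replicates above 10; inactive = over half of replicates below 10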;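 note: wells of about 30 µL received 50 nL stock; many hits fall short of the cut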
UCH37 inh = inhibitors of human UCH37 deubiquitinase, primary screen, biochemical, Ub-AMC cleavage, fluorescence; Ubiquitin carboxyl-terminal hydrolase isozyme L5 (Homo sapiens), Q9Y5K5; purified proteasome/UCH37; inhibition, % (test concentration not listed); 330,000 tested, 0.33% active; AID 588478, 2011;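 active = mean of two replicates above 20%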;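 note: 0% = compound-free wells with enzyme and 100% = wells lacking proteasome; stock transfer was 100 nL into about 20 µL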
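system = Proteasome-associated human UCH37 deubiquitinase | amount = 0.15 nM proteasome as dispensed | medium = pH 7.4 Tris-HCl (50 mM) with ovalbumin, ATP-MgCl2, DTT | incubation = 30 min preincubation with enzyme, 25 min cleavage at room temperature | detection = AMC fluorescence 355/460 nm | read-out basis = percent inhibition | controls = no-proteasome and no-compound wells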
Vif TR-FRET = inhibitors of Vif binding to APOBEC3G peptide, primary screen, biochemical, TR-FRET, GST-Vif 1-94, biotin-A3G peptide, dose response retest (AID 1117319); inhibition, %; hits with a dose series show IC50 in µM; Virion infectivity factor (Human immunodeficiency virus type 1 group M subtype B (isolate …; TR-FRET GST-Vif / biotin-A3G peptide binding; higher % means a stronger effect; test concentration not given here; strong numbers were not always called active; 260,000 tested, 0.57% active;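 active = above the screen mean plus three standard deviations and confirmed in dose response; inconclusive = results disagree or hit not tested in dose response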;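 note: Vif residues 1-94 fused to GST binding biotinylated APOBEC3G peptide 110-148; 0% = full assay without inhibitor and 100% = GST in place of GST-Vif; retest series ran down from 100 µM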
LANA-H2A inh = blockers of LANA interaction with H2A/H2B – biochemical, FP readout, HTS, primary screen; cell-free LANA-H2A/H2B peptide, fluorescence polarization; inhibition, % (concentration not given with the values); 320,000 tested, 0.6% active; Protein LANA1 (Human herpesvirus 8 type P (isolate GK18)), Q9QR71; AID 2629, 2010; in the data active = inhibition mostly above about 10%, no sharp cut-off; inactive = mostly below about 6.7%;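 note: stock transfer was 7.5 nL into about 10 µL; 0% = median of vehicle wells and 100% = median of positive control wells; one replicate is shown; the record names a cut of 25% in any replicate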
Target sequence (Q9QR71 whole entry, looked up): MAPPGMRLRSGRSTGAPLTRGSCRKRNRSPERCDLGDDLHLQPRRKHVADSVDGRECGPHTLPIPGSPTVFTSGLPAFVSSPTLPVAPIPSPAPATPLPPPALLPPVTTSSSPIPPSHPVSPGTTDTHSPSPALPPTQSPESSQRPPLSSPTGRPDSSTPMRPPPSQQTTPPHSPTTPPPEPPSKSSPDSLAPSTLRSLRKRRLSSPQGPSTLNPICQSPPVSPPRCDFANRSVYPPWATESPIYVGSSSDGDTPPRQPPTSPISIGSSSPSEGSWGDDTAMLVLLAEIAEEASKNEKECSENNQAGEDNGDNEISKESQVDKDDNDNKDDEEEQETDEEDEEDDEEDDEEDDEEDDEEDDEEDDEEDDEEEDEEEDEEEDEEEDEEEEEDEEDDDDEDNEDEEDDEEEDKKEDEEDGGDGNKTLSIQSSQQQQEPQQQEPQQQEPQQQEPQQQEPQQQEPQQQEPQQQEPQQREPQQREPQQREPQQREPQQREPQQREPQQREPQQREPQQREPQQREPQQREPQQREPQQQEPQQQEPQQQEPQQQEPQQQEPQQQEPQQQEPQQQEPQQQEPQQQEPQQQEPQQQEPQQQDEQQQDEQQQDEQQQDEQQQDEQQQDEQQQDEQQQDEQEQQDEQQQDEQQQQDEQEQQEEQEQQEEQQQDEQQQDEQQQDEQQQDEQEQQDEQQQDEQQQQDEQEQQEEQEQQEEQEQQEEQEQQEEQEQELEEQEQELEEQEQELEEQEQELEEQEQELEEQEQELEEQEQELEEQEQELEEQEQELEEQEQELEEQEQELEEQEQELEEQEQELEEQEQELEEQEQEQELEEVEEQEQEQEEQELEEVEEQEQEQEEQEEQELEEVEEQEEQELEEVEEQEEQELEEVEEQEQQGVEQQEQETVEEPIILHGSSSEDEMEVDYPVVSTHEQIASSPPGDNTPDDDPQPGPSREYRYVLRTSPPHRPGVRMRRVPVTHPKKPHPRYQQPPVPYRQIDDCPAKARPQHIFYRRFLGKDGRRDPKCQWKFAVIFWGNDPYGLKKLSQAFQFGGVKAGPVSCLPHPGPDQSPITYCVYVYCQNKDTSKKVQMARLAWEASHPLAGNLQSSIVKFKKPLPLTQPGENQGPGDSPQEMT
HNF4A DNA FP = change in binding of human HNF4A to DNA, primary screen, biochemical, fluorescence polarization, FITC-DNA. activity change, % at 10 µM. Hepatocyte nuclear factor 4-alpha (Homo sapiens), P41235. 360,000 tested, 0.3% active. 1 h; in the data active = activity change above about 30%, passing the limit was not always enough;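 note: controls were the assay level and a saturating level of protein; the project sought stronger binding though the title names inhibitors; some compounds called inactive have numbers as strong as hits; positive values seem to mean higher polarization but the record does not say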
E coli growth = E. coli growth inhibition, primary screen, OD600 | Escherichia coli growth, 23 h; stronger effect = lower value | OD600 absorbance (no concentration beside the values) | 330,000 tested, 0.21% active;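 active = OD600 absorbance below the run mean of sample wells minus 3.6 SD, in any replicate, cut at about 0.56 in these data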;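 note: stock transfer was 300 nL into about 60 µL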
Beta2AR agonist = beta2AR agonists driving receptor internalization, primary screen, cell-based, FAP fluorogen, flow cytometry; Am2.2-beta2AR cells; reference of the scale not given here; Beta-2 adrenergic receptor (Homo sapiens), P07550; response, % (no concentration beside the values); 340,000 tested, 0.43% active; AID 504454, 2011;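 active = response above a set limit, near 3 SD of response in nonfluorescent compounds, cut at about 42% in these data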;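 note: stock transfer was 100 nL into about 11 µL; a reference agonist was the positive control; negative values mostly stem from fluorescent compounds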
Starred values were filed as active, the others as inactive; ? = inconclusive; nt = not tested or not shown; & = joins results of further samples. Outcome played no part in choosing rows, and some 2.1% of all compounds hit somewhere here.

SMILES	A1 inh	UCH37 inh	Vif TR-FRET	LANA-H2A inh	HNF4A DNA FP	E coli growth	Beta2AR agonist
O=C(Nc1cccnc1Cl)c1cc(-c2ccco2)on1	-1.0	-0.3	0%	0.9	3.9	0.69	-4
COCCN1Cc2cccc(C(=O)N3CCN(c4cc(C)ccc4C)CC3)c2C1=O	0.1	2.8	0%	7.1	-0.7	0.77	-4
COCC(C)N=Cc1c(O)[nH]c2ccccc12 (stereo unspecified)	-0.4	4.9	?	2.0	-0.8	0.73	-10
CCOc1ccc(NC(=O)CSc2nnc(NC(=O)C3CC3)s2)cc1	-0.4	4.1	-5%	-0.8	-4.0	0.67	-18
CC(=O)N1CCc2cc(S(=O)(=O)CCC(=O)NCCc3ccccc3)ccc21	-0.7	4.4	nt	-3.6	-2.5	0.69	-5
COc1ccc(-c2cc(C(F)(F)F)n3nc(C(=O)N(C)Cc4ccccc4)cc3n2)cc1OC	0.2	-143	nt	18*	-0.5	0.73	13
O=C(CN1C(=O)NC2(CCCC2)C1=O)Nc1nc2ccccc2[nH]1	0.8	nt	nt	-3.4	6.7	nt	5
COCCn1c(=N)c(S(=O)(=O)c2ccc(F)cc2)cc2c(=O)n3cccc(C)c3nc21	-0.8	-201	nt	4.3	-16	0.71	-3
O=C(C1CCCO1)N(c1ccc(F)cc1)C1C=CS(=O)(=O)C1 (stereo unspecified)	-0.3	3.5	17%	-7.5	1.6	0.72	-6
CC(OC(=O)C1CCN(c2ccc(C(F)(F)F)cn2)CC1)C(=O)Nc1ccc(S(N)(=O)=O)cc1 (stereo unspecified)	1.1	-0.9	nt	0.0	-5.1	0.75	3
O=C1C2CCCCN2C(=O)N1CCN1CCN(c2ccc([N+](=O)[O-])cc2)CC1 (stereo unspecified)	0.0	1.3	-1%	4.7	-3.2	0.68	-4
Nc1ccccc1SCc1cn2cccnc2n1	0.5	3.8	-4%	0.7	-0.2	0.73	-3
CCOc1ncccc1C(=O)OCC(=O)c1ccc(OC)c(OC)c1	0.1	-1.4	2%	1.3	-3.0	0.67	-1
CC(=O)c1ccc(-c2ccc(C(=O)Nc3nc(-c4ccccn4)cs3)o2)cc1	-0.5	-80	nt	0.8	-1.5	0.67	16
COCCNC(=O)CSc1nc2nn(-c3ccccc3)c(=O)c-2c2n1CCCCC2	-0.2	3.9	2%	0.9	-5.9	0.67	-4
CC(=O)Nc1ccc2c(c1)NC(=O)CC2	-1.2	2.5	-8%	8.4	4.5	0.7	-10
CC(=O)N1CCN(C(=O)c2ccc(Cl)c(S(=O)(=O)N3CCCCCC3)c2)CC1	-0.3	-0.3	2%	1.6	3.7	0.7	-8
COc1ccc(Cn2c(O)c(C=Nc3ccccc3)c3ccccc3c2=O)cc1	-0.1	nt	nt	-3.1	2.1	nt	0
COc1cc2c(cc1OC)-c1nnc(C)n1C1(CCCC1)C2	1.0	1.0	1%	1.1	1.0	0.72	-9
Cc1ccc(S(=O)(=O)N2CCN(C(=O)c3ccccc3OCc3c(C)noc3C)CC2)cc1C	-1.3	4.4	1%	-11	-0.8	0.68	1
COc1ccc(NC(=O)CC2Oc3ccccc3NC2=O)cc1 (stereo unspecified)	1.8	5.4	10%	2.1	-2.2	0.74	-1
Cc1ccc(C(C)(C)C)cc1S(=O)(=O)Nc1ncnc2sccc12	-0.1	3.3	8%	-2.6	7.2	0.7	-5
COc1ccc(OC)c(Nc2nc(NCCO)c3ccccc3n2)c1	-1.2	nt	8%	4.3	-2.7	nt	8
O=C(NCc1ccco1)C1CC(c2ccccc2C(F)(F)F)=NO1 (stereo unspecified)	1.4	8.1	nt	-3.6	-0.7	0.67	-6
CC(=O)c1ccccc1OC(=O)c1ccco1	0.6	0.6	1%	-1.6	-0.6	0.69	9

Quoted at random: 6 records from the list, in no set order.
SMILES	A1 inh	UCH37 inh	Vif TR-FRET	LANA-H2A inh	HNF4A DNA FP	E coli growth	Beta2AR agonist
CC(=O)Nc1ccc2c(c1)NC(=O)CC2	-1.2	2.5	-8%	8.4	4.5	0.7	-10
COc1ccc(OC)c(Nc2nc(NCCO)c3ccccc3n2)c1	-1.2	nt	8%	4.3	-2.7	nt	8
CC(=O)N1CCc2cc(S(=O)(=O)CCC(=O)NCCc3ccccc3)ccc21	-0.7	4.4	nt	-3.6	-2.5	0.69	-5
CCOc1ncccc1C(=O)OCC(=O)c1ccc(OC)c(OC)c1	0.1	-1.4	2%	1.3	-3.0	0.67	-1
O=C(NCc1ccco1)C1CC(c2ccccc2C(F)(F)F)=NO1 (stereo unspecified)	1.4	8.1	nt	-3.6	-0.7	0.67	-6
COCCNC(=O)CSc1nc2nn(-c3ccccc3)c(=O)c-2c2n1CCCCC2	-0.2	3.9	2%	0.9	-5.9	0.67	-4

Later entries.
SMILES	A1 inh	UCH37 inh	Vif TR-FRET	LANA-H2A inh	HNF4A DNA FP	E coli growth	Beta2AR agonist
CC(Oc1ccc(F)cc1)C(=O)Nc1cc(S(=O)(=O)N2CCOCC2)ccc1N1CCCC1 (stereo unspecified)	0.5	0.9	nt	-3.8	0.9	0.63	4
O=C(Cc1cccc2ccccc12)NNC(=O)c1ccc(Br)o1	-1.0	1.9	nt	-1.3	2.9	0.68	-1
COC(=O)C[C@H]1c2cc(C(F)(F)F)ccc2S(=O)(=O)N1C1CCCCC1	0.5	3.5	nt	2.3	3.2	nt	-2
O=C(NCCc1cccs1)c1ccc(CS(=O)Cc2ccc(Cl)cc2)o1 (stereo unspecified)	-0.2	0.9	-6%	-0.1	1.8	0.69	-6
Cc1ccc(NC(=O)NCC2CCN(Cc3cccc(Cl)c3)CC2)cc1Cl	0.0	3.2	-6%	-3.1	-3.4	0.58	30
COc1ccc(N2C(=O)CC(N3CCN(C(=O)c4ccco4)CC3)C2=O)cc1 (stereo unspecified)	-0.1	-0.4	-3%	-1.3	0.4	0.68	1
CCN(CCO)C(=O)c1ccc2oc(Cc3ccc(Cl)cc3)nc2c1	0.0	1.1	nt	0.9	3.9	0.67	-7
O=C(CSc1cccc[n+]1[O-])Nc1cc([N+](=O)[O-])ccc1Cl	0.4	1.3	14%	-5.4	2.8	0.69	2
O=[N+]([O-])c1cc([N+](=O)[O-])c2n[nH]c(-c3ccccc3)c2c1	0.7	nt	-4%	-15	3.6	nt	2
COc1cc(/C=C2\CCCc3c2nc2ccccc2c3C(=O)O)cc([N+](=O)[O-])c1O	0.0	16	nt	2.1	-9.1	0.69	0
CCCCN(C(=O)C1CC(=O)N(Cc2ccc(C)cc2)C1)c1c(N)n(CCCC)c(=O)[nH]c1=O (stereo unspecified)	-0.8	-0.6	0%	1.0	0.5	0.64	2
CC(=O)Nc1cccc(-c2cn3ccccc3n2)c1	1.5	-21	?	-6.3	-0.9	0.63	-14
COc1ccc(C)cc1NC(=O)C(=O)N/N=C(\C)CC(=O)Nc1cccnc1	-0.1	nt	-1%	-1.6	-0.9	nt	-8
Cn1c(SCc2ccccc2)nc(N)c(N=O)c1=O	?	2.5	nt	7.9	0.2	0.63	-1
O=C(c1ccco1)n1nc(-c2ccc(Cl)cc2)nc1NCc1ccco1	0.8	-11	-5%	-1.5	0.5	0.75	-7
CCn1cc(C(=O)Nc2ccc(NC(=O)c3ccco3)cc2)c(=O)c2ccc(C)nc21	0.0	-1.2	-3%	4.4	2.9	0.69	6
O=C(Nc1ncccc1O)c1ccc(Cl)c(S(=O)(=O)N2CCCCC2)c1	0.3	2.5	-8%	2.2	0.9	0.68	-10
COc1ccc(Cl)cc1NC(=O)CN(C)C(=O)CNC(=O)C12CC3CC(CC(C3)C1)C2	0.6	-1.4	1%	1.5	-2.2	0.64	5
CN(C)/C=N/c1ncc(C(=O)c2ccccc2)s1	-1.5	nt	-6%	-1.4	0.8	nt	-6
CCOC(=O)C1=C(C)OC(N)=C(C(=O)OCC)C1c1cccnc1 (stereo unspecified)	1.5	1.9	5%	-11	-4.1	0.73	0
NS(=O)(=O)c1cc(C(=O)OC2CCOC2=O)ccc1Cl (stereo unspecified)	0.0	0.9	4%	5.5	1.2	0.7	3
COc1ccc(OCCC(=O)Nc2nccs2)cc1	-0.6	2.0	-8%	1.1	0.8	0.68	-6
O=C(c1cccnc1)N1N=C(c2cccs2)CC1c1ccc(F)cc1 (stereo unspecified)	0.1	7.4	nt	3.6	0.6	0.69	-5
Cc1cccc(-n2cnc(C(=O)NC3CCCCCC3)c2)n1	-3.0	3.3	-2%	-5.8	0.8	0.74	1
O=c1c2ccccc2c(-c2ccc(Br)cc2)nn1Cc1ccccc1	-0.4	-3.6	0%	6.6	0.6	0.73	-4
Remaining list, next part:
SMILES	A1 inh	UCH37 inh	Vif TR-FRET	LANA-H2A inh	HNF4A DNA FP	E coli growth	Beta2AR agonist
CC1=C(SCCC#N)S/C(=C2\SC(C)=C(SCCC#N)S2)S1	-0.4	9.7	13%	-2.5	-2.9	0.73	6
CSc1nc(O)c(Cc2ccccc2)c(=O)[nH]1	0.8	0.8	-5%	5.2	0.5	0.73	-1
Cc1ccc2cc(/C=C3\N=C(c4ccccc4)OC3=O)c(N3CCOCC3)nc2c1	0.2	2.5	-6%	-16	nt	0.7	nt
Cc1ccccc1C(=O)N[C@H](C(=O)OCC(=O)c1ccc[nH]1)C(C)C	-0.4	0.5	19%	2.6	-2.0	0.66	-5
COc1ccc(S(=O)(=O)N2CCCC2C(=O)Nc2ccc(C)cc2)cc1 (stereo unspecified)	-0.3	1.4	0%	7.6	-0.7	0.68	-6
CCCCn1c(NCc2ccccc2NS(=O)(=O)c2ccc(C)cc2)nc2ccccc21	-0.3	3.4	66%	0.1	-1.2	0.76	7
COc1ccc(-c2ccc(SCC(=O)c3cccs3)nn2)cc1	-0.2	3.3	-11%	2.8	2.9	0.67	-4
C=CCN(c1ccccc1)S(=O)(=O)c1cccc(C(=O)NC2CCC(O)CC2)c1 (stereo unspecified)	-0.4	0.4	nt	1.1	-0.7	0.69	3
CC(C)CC1C(=O)N(Cc2cn(CC3CCCCC3)nn2)CCS(=O)(=O)N1Cc1ccc(-c2cccc(C#N)c2)cc1 (stereo unspecified)	nt	nt	7%	nt	1.9	nt	7
CC(Oc1ccc(Cl)cc1Cl)C(=O)Nc1ccc(OCC(=O)O)cc1 (stereo unspecified)	-0.1	4.9	8%	-4.0	-4.3	0.65	-11
Cc1cc2cc(CNC(=O)c3ccc(S(=O)(=O)N4CCCCC4)cc3)ccc2n1C	1.4	5.0	-65%	0.2	-4.7	0.68	7
CCc1ccc2c(c1)C(c1ccc([N+](=O)[O-])cc1)=NNC(c1ccc(C)cc1)=N2	0.8	5.9	14%	3.4	0.9	0.74	-10
Cc1nn(CC(O)CN2c3ccccc3Sc3ccccc32)c(C)c1Br (stereo unspecified)	0.0	3.9	-5%&1%	-4.5	0.0	0.71	-6
COc1ccc(-n2c(-c3ccccc3)cc3c2CCCC3=O)cc1	2.1	0.9	-1%	-4.1	1.7	0.64	-13
O=C(c1cccc2nccnc12)N1CCCC(Nc2ccc(F)c(F)c2)C1 (stereo unspecified)	0.2	0.4	-2%	3.9	6.2	0.72	-4
